UCH37 DUB inh: blocks the human deubiquitinase UCH37. Q9Y5K5. purified proteasome/UCH37, Ub-AMC cleavage fluorescence. inhibition, % (concentration not given with the values). 0.33% of 330,000 active;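 active means mean of two replicates above 20%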;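 further: 0% = compound-free wells with enzyme and 100% = wells lacking proteasome; stock transfer was 100 nL into about 20 µL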
Target sequence (Q9Y5K5 whole entry, looked up): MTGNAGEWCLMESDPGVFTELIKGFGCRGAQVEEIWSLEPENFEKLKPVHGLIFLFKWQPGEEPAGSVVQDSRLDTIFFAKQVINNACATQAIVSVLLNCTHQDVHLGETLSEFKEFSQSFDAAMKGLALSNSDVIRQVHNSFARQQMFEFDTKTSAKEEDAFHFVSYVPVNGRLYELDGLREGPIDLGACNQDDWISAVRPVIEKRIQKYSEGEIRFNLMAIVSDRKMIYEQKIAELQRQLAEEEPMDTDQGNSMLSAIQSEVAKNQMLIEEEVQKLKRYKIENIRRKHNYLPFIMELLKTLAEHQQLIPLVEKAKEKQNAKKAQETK
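Material: Human UCH37 enzyme supplied as purified proteasome complex | Schedule: 30 min compound-proteasome preincubation then 25 min substrate reaction, room temperature | Detection: AMC fluorescence from Ub-AMC cleavage, excitation 355 nm, emission 460 nm | Benchmarks: Wells without proteasome as full block, compound-free enzyme plus substrate as uninhibited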
Ecoli growth: E. coli growth inhibition | Escherichia coli growth, OD600, 23 h; hits give low values | OD600 absorbance (concentration not given with the values) | 0.21% of 330,000 active;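 active means OD600 absorbance below the run mean of sample wells minus 3.6 SD, in any replicate, cut at about 0.56 in these data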;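 further: stock transfer was 300 nL into about 60 µL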
FGF22 binding: binders of recombinant human FGF22 by thermal shift. SYPRO orange fluorescence; percent of sucrose octasulfate shift, DMSO zero. calls only at 9.99 µM. 1.5% of 340,000 active;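 active means melting point raised past a set limit in the mean and every replicate; three in four hits are not shown here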
Target sequence (Q9HCT0 whole entry, looked up): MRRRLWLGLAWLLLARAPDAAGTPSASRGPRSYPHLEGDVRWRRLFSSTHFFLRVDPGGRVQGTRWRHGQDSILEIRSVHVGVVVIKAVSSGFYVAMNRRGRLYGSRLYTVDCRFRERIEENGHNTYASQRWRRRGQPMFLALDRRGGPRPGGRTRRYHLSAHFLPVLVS
ALR inh: blocks human ALR sulfhydryl oxidase activity. P55789. purified ALR, DTT oxidation, H2O2 HRP-luminol luminescence. AID 485317. inhibition, % (no concentration beside the values). 3.8% of 290,000 active;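 active means mean and each replicate at 75% or more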;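 further: stock transfer was 7.5 nL into about 7.5 µL; 0% = neutral wells and 100% = wells with inactivated enzyme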
HNF4A DNA FP: change in binding of human HNF4 alpha to DNA | AID 1224865 | 0.3% of 360,000 active | HNF4a-FITC DNA binding, fluorescence polarization, 1 h | P41235 | activity change, % at 10 µM; in the data active means activity change above about 30%, passing the limit was not always enough;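 further: controls were the assay level and a saturating level of protein; the project sought stronger binding though the title names inhibitors; some compounds called inactive have numbers as strong as hits; positive values seem to mean higher polarization but the record does not say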
rRNA inh HTS: inhibitors of bacterial rRNA selective over humanized ribosomes | 1.6% of 350,000 active | E. coli WT GFP vs humanized-ribosome RFP mutants, fluorescence, 24 h; hits give low values; DMSO median 0, no signal -100 | GFP signal change (wild-type ribosome), % (concentration not given with the values) | AID 720706;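 active means significant combined selectivity score with lowered wild-type GFP, culture density cut under 30%, mutant RFP and density less affected; inactive means any of these conditions unmet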; further: one replicate is shown; some compounds called inactive have numbers as strong as hits
B2AR ag: activates human beta-2 adrenergic receptor causing internalization; Am2.2-beta2AR cells, FAP receptor internalization, flow cytometry; reference of the scale not given here; response, % (concentration not given with the values); 0.43% of 340,000 active; AID 504454;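 active means response above a set limit, near 3 SD of response in nonfluorescent compounds, cut at about 42% in these data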;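 further: stock transfer was 100 nL into about 11 µL; a reference agonist was the positive control; negative values mostly stem from fluorescent compounds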
Target sequence (P07550 whole entry, looked up): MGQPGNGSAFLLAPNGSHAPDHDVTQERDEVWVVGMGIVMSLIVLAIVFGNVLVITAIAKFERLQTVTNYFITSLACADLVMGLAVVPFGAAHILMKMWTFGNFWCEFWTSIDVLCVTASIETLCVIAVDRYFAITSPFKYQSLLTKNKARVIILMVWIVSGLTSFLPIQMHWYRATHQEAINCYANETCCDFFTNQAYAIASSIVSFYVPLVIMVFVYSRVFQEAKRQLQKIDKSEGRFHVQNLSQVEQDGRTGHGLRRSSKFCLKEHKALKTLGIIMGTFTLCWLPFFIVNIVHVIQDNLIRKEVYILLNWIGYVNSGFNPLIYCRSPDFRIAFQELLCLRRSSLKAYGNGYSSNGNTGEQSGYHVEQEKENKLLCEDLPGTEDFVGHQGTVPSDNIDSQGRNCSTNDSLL
rRNA inh HTS OD600: further read-out of rRNA inh HTS, marked with its call; OD600 change, %; measured here: OD600 growth;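 optical density of the mix in the first replicate; 0 = DMSO median and -100 = no signal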
rRNA inh HTS RFP: recorded beside rRNA inh HTS, whose call it bears; RFP signal change, %; measured here: RFP humanized mutant strains;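 first replicate; 0 = DMSO median and -100 = no signal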
Active calls of the source: *; i = inactive; x = no result given; & = joins results of further samples. An excerpt; rates above refer to the full screens.

smiles,UCH37 DUB inh,B2AR ag,FGF22 binding,rRNA inh HTS RFP,rRNA inh HTS OD600,rRNA inh HTS,ALR inh,HNF4A DNA FP,Ecoli growth
CC(C)(C)C(=O)C(Oc1ccc(Cl)cc1)n1cncn1 (centres undefined),0.6,0,i,-0.5,0,-1,x,-3.9,0.64
CCN1CCN(Cc2cc(C(C)(C)C)c(O)c(C(C)(C)C)c2)CC1,0.8,x,x,x,x,x,8,x,0.69
Nc1c(Br)cc([N+](=O)[O-])cc1[N+](=O)[O-],10,-2,i,-4.0,-9,-2,2,-0.5,0.62
Cn1c(O)c(C=NC2CCCCCC2)c(=O)[nH]c1=S,7.1,5,i,-1.5,17,7,24,4.4,0.73
CCOc1ccc(/C=C2/C(=O)NC(=O)N(CCc3ccc(F)cc3)C2=O)cc1,1.5,1,i,2.2,2,0,25,2.1,0.71
CCOP(=O)(CCP(=O)(OCC)OCC)OCC.C[CH2][Sn]([Cl])([Cl])[CH2]C,x,-18,i,-7.0,-62,-29,x,3.5,x
CCCC1(CCC)C(=O)NC(=Nc2ccccc2)NC1=O,-2.6,5,x,x,x,x,x,-6.8,0.68
CC12CC[C@H]3[C@@H](CCC4(O)C[C@H](O)CCC34/C=N/NC(=O)c3ccccc3[N+](=O)[O-])C1(O)CCC2C1=CC(=O)OC1 (some centres undefined),x,6,i,-0.1,12,8,-26,-31,x
Cn1c(O)c(C(=NCCN2CCCCC2)c2ccccc2Cl)c(=O)n(C)c1=O,3.7,6,x,x,x,x,-3,-1.9,0.69
O=C(O)c1cccc2c1NC(C(=O)O)C1CC(Sc3ccccc3[N+](=O)[O-])C(Cl)C21 (centres undefined),-16,-7,x,x,x,x,18,-54,0.8
N#CC1c2ccccc2C=CN1C(=O)c1ccc(N(CCCl)CCCl)cc1 (centres undefined),x,x,i,-0.1,2,-2,x,0.3,x
N#Cc1ccc(OCC(=O)N2CCN(Cc3ccc4c(c3)OCO4)CC2)cc1,1.3,-1,i,0.0,2,-5,-13,1.1,0.7
CC(=O)N1CN2CN(C(C)=O)CC(C(=O)c3ccc([N+](=O)[O-])cc3)(C2)C1,-0.9,-1,i,-1.0,14,-6,-5,-4.0,0.7
O=C(c1cc(-c2ccncc2)nc2ccccc12)N1CCC2(CC1)OCCO2,3.2,3,x,x,x,x,-2,-5.9,0.68
COc1cc2[nH]c(=O)n(-c3cccc(Cl)c3)c(=O)c2cc1OC,-19,1,x,2.5,28,3,-1,-1.3,0.67
CCOc1ccc(CC2(CCc3ccncc3)C(=O)NC(=O)NC2=O)cc1,1.2,-5,i,1.2,11,15,-3,2.2,0.7

Continued; the last two above are carried over.
smiles,UCH37 DUB inh,B2AR ag,FGF22 binding,rRNA inh HTS RFP,rRNA inh HTS OD600,rRNA inh HTS,ALR inh,HNF4A DNA FP,Ecoli growth
COc1cc2[nH]c(=O)n(-c3cccc(Cl)c3)c(=O)c2cc1OC,-19,1,x,2.5,28,3,-1,-1.3,0.67
CCOc1ccc(CC2(CCc3ccncc3)C(=O)NC(=O)NC2=O)cc1,1.2,-5,i,1.2,11,15,-3,2.2,0.7
Cc1ccc2c(c1)NP(=S)(Oc1ccccc1)N2 (centres undefined),2.3,-2,i,-1.1,5,-2,x,-2.8,0.69
O=C(NCc1cccnc1)Nc1ccccc1Cl,-0.5,2,i,-0.7,4,5,-2,0.0,0.66
O=C(/C=C/c1c[nH]c2ccccc12)c1c(O)n(CCc2ccccc2)c(=O)[nH]c1=O,x,i,i,10,9,12,-7,-96,x
O=C(Nc1ccccc1)c1c(O)c2c(n(Cc3ccco3)c1=O)CCCC2,-3.6,6,i,2.8,1,17,x,-0.5,0.72
C[C@]12CCC(=O)C=C1CC[C@@H]1C2CC[C@]2(C)C(=O)CCC12 (some centres undefined),1.6,-2,i,-9.5*,-20*,-38*,-3,1.7,0.65
O=C1NC(=O)[C@]2(Cc3ccccc3N3CCN(c4ccccc4)CC32)C(=O)N1Cc1ccccc1 (some centres undefined),2.5,2,x,x,x,x,x,-8.4,0.77
Cn1c(O)c(C=Nc2ccccc2Sc2ccccc2)c(=O)n(C)c1=O,-34,-16,x,x,x,x,x,-4.5,0.72
COC(=O)[C@]1(C)C[C@H]1[C@H](NP(=O)(c1ccccc1)c1ccccc1)c1ccccc1,0.3,-4,i,-12,-28,-19,x,-0.7,x
Cc1cnn(C2CCN(C)CC2)c1N,1.6,-4,x,x,x,x,4,-1.6,0.61
CCN(CC)c1ccc(/C=C/[N+](=O)[O-])cc1,3.4,63*,i,12,-43,-24,99*,3.0,0.67
CCOP(=O)(OCC)C(NC(=O)CN1C(=O)c2ccccc2S1(=O)=O)C(Cl)(Cl)Cl (centres undefined),2.2,-4,i,-2.2,5,7,-3,2.5,0.66
C=CCN1CC[C@]23c4c5ccc(O)c4O[C@H]2C(=O)CC[C@@]3(O)[C@H]1C5,-0.1&-2.0,1&7,i,x,x,x,6&1,5.2&-0.1,x
CCNC(=S)NCCC1=c2ccccc2=N/C1=C\c1c(O)n(C)c(=O)n(C)c1=O,2.3,31,i,-1.6,-2,-2,0,0.2,0.68
Cc1ccc(CN2CCN(Cc3ccccc3)CC2)cc1,4.9,-1,i,-1.0,-3,3,-4,-1.4,0.7
Cc1cccc(CN2CCCN(Cc3ccc(Cl)cc3)S2(=O)=O)c1,4.7,-10,i,-2.4,-25,-6,7,2.8,0.66
Cc1nc2ccccc2c(=O)n1-c1cccc(O)c1,1.6,13,x,x,x,x,-17,0.6,0.72
C=CCn1c(=O)c(C=Nc2cccc([N+](=O)[O-])c2)c(O)n(CCCC)c1=O,6.5,-22,x,x,x,x,-1,31,0.74
CCc1c(C)nc(N)nc1N1N=C1SC,1.6,-5,x,x,x,x,15,0.7,0.68
CCCCOC(=O)c1ccccc1N,x,14,i,-0.2,2,2,x,-1.8,x
COc1cccc(CN2CC=C(c3ccc(F)cc3)CC2)c1,-0.5,15,i,2.4,4,12,3,-2.1,0.62
COc1ccc(N2C(=O)/C(=C/c3cccs3)C(=O)NC2=S)cc1,5.8,4,i,3.2,12,7,9,0.9,0.61
COP(=S)(OC)Oc1ccc(Sc2ccc(OP(=S)(OC)OC)cc2)cc1,x,7,i,-1.7,-2,2,x,0.8,x
CN1CCc2cc3c(cc2C1)OCO3,x,2,i,x,x,x,x,0.1,x
CCCNC(=O)N1[C@H]2CC[C@@H]1C(C(=O)OC)=C(c1cccc(OC)c1OC)C2,4.0,-2,i,0.3,-4,1,2,4.4,x
COC(=O)CC1(CC(=O)OC)C(=O)NC(=O)NC1=O,1.8,14,x,x,x,x,-8,-1.6,0.73
O=C(c1ccc(Cl)cc1)C1CCCN(Cc2ccc3ncccc3c2)C1 (centres undefined),0.8,-6,i,-9.2,-21,-21,x,-0.3,0.64
C[C@]12CCC(OC(=O)CCC(=O)O)CC1=CCC1C2CC[C@]2(C)C(=O)CCC12 (some centres undefined),2.8,-3,i,-4.0,-40,-21,-8,0.2,0.67
Cc1ccc(OCCSC2=NN2c2cc(C)nc(N)n2)cc1,3.1,-6,i,0.1,-15,-16,-8,-1.0,0.66
Clc1ccc(C2NCCc3[nH]cnc32)cc1 (centres undefined),0.1,-7,i,13,16,15,x,-1.2,0.68
CC(=O)Nc1ccc2c(c1)CC1(C(=O)N(C)C(=O)N(C)C1=O)C1CCCN21 (centres undefined),1.8,2,x,x,x,x,-50,2.2,0.72
Cn1c(O)c(C=NCCCCCCCCCCC(=O)O)c(=O)n(C)c1=O,1.5,0,i,-2.5,-3,5,x,-1.9,0.69
COc1ccc2[nH]c3c(c2c1)CCN=C3C,2.5,10,i,x,x,x,-4,14,0.71
CCC(CO)(C(=O)OC1CC2CCC(C1)N2C)c1ccccc1 (centres undefined),2.5,4,i,3.1,14,21,x,-2.4,0.65
CC1=C(C(=O)Nc2ccccc2)SCCO1,3.6,-4,i,2.7,6,6,-28,-1.4,0.69
CC(c1ccccc1)(c1ccccc1)c1ccncc1,1.3,14,i,-35,-76,-56,-1,-1.6,0.66
O=c1[nH]c(=S)n(-c2ccccc2F)c(O)c1C=Nc1ccc(N2CCOCC2)cc1,7.7,2,i,6.3,-16,4,39,1.7,0.72
C=CCn1c(O)c(C=NCCN2CCNCC2)c(=O)[nH]c1=O,1.1,-3,x,x,x,x,-5,2.6,0.68
C[C@]12C[C@@H](O)[C@H](O)CC1=CCC1C2CC[C@@]2(C)C1CC[C@@H]2O (some centres undefined),0.5,0,i,-0.2,-61,-38,-5,0.7,0.64
O=C1NCN(c2ccccc2)C12CCN(C(c1cc3ccccc3o1)c1nnnn1C1CCCCC1)CC2 (centres undefined),x,x,i,0.5,12,16,x,-0.2,x
Fc1ccc(CNCCc2ccccc2F)cc1,2.9,-4,i,-7.4,11,18,-9,-0.3,0.7
O=C(c1cn(Cc2ccccc2)c2ccccc12)C1CC1,4.5,0,i,-0.2,15,8,x,-3.3,0.71
Cc1cc(C(=O)OCC(=O)Nc2c(F)cccc2F)c(C)n1C1CC1,-0.2,-4,i,-1.6,3,2,x,2.4,0.7
CCCCOCCCN1C(C)=CC(=C2C(=O)NC(=S)NC2=O)C=C1C,-52,0,i,-2.9,2,5,-12,-1.1,0.72
CC(=O)c1ccc(N2CCN(C(=O)CN3C(=O)NC4(CCCCC4)C3=O)CC2)c(F)c1,7.7,5,i,x,x,x,-2,1.5,0.63
CC(C)CCOP(N)(=O)Oc1ccccc1Cl (centres undefined),8.0,-1,i,8.5,-32,-31,-12,1.8,0.76

Single entries from above:
CC(=O)c1ccc(N2CCN(C(=O)CN3C(=O)NC4(CCCCC4)C3=O)CC2)c(F)c1 in ALR inh has -2
Cc1cc(C(=O)OCC(=O)Nc2c(F)cccc2F)c(C)n1C1CC1 in UCH37 DUB inh has -0.2
CC(C)CCOP(N)(=O)Oc1ccccc1Cl (centres undefined) in rRNA inh HTS has -31
O=C(c1cn(Cc2ccccc2)c2ccccc12)C1CC1 in B2AR ag has 0

Compound activity: PubChem BioAssay, several laboratories
